Vaccinia Venus: inhibitors of vaccinia virus (Venus reporter) | Potency, µM (series often up to 36.5 µM), for inactives: at the top dose activity change, negative = inhibition, actives largely listed as inhibitors | AID 720580 | Vaccinia virus Venus reporter expression, fluorescence | 330,000 tested, 0.46% active; active means well fitted inhibition curve with a large enough effect; inconclusive means small, poorly fitted or top-dose-only effect; inactive means no such curve, though single readings can be large or run the other way; tested in A549 cells; also: nearly all actives have a fitted effect of over 30% in size; inactives centre near -10
VACV mCherry inh: inhibitors of vaccinia virus infection (mCherry reporter signal); Vaccinia virus mCherry reporter infection, fluorescence; about a quarter of the inactives have no number; 310,000 tested, 0.63% active; AID 720579; Potency, µM (top dose mostly 36.5 µM), without a hit: at the highest dose activity change, negative = inhibition, usual class: inhibitors; active = well fitted inhibition curve with a large enough effect; inconclusive = small, poorly fitted or top-dose-only effect; inactive = no such curve, though single readings can be large or run the other way; tested in A549 cells; also: nearly all actives have a fitted effect of over 35% in size; inactives centre near -10
The depositor's hits bear a star; i = inactive; ? = inconclusive; . = not tested or not shown; & = joins results of further samples; [ ] = dose if it differs, or a comment. % is scaled to controls: 0 for no effect and ±100 for the full control effect; potency is read from the fitted curve at half-maximal effect.

Below each SMILES – Vaccinia Venus | VACV mCherry inh
- CCOC(=O)c1ccc(NC(=O)c2ccc(C)c(S(=O)(=O)N3CCOCC3)c2)cc1
    ? | ?
- COc1ccc([C@H]2CC(=O)C=C(c3ccccc3OC)C2)cc1OC
    -28.8% | ?
- Cc1cc(C)cc(NC(=O)CSc2nnc(CNC(=O)c3c(F)cccc3Cl)o2)c1
    3.9% | -1.5%
- Cc1ccc(C)c(NC(=S)N2CCC(NC(=O)C3CCCCC3)CC2)c1
    -6.2% | -13.4%
- CCOC(=O)C1CCN(c2nc(C)cc(C)c2C#N)CC1
    -18.6% | i
- CC(/C=C\c1ccccc1)=C/C(=O)O
    -11.4% | i
- Cn1c(=O)c2c(nc(OCc3cccnc3)n2Cc2c(F)cccc2Cl)n(C)c1=O
    -8.4% | i
- C=CCc1cc(OC)ccc1OCCOCCC(C(=O)OCC)C(=O)OCC
    -12.4% | i
- C[C@H]1CN([C@@H](C)CO)C(=O)c2c(c3ccccc3n2C)-c2ccccc2CO[C@H]1CN(C)Cc1cccc(F)c1
    -8.6% | -8.4%
- COc1cccc(C2=CC(=O)C(C(C)(C)C)N2C(C)(C)C)c1 (stereo not drawn)
    -2.5% | i

Three entries from above, ordered by molecular weight, ascending:
Below each SMILES – Vaccinia Venus | VACV mCherry inh
- CCOC(=O)C1CCN(c2nc(C)cc(C)c2C#N)CC1
    -18.6% | i
- C=CCc1cc(OC)ccc1OCCOCCC(C(=O)OCC)C(=O)OCC
    -12.4% | i
- CCOC(=O)c1ccc(NC(=O)c2ccc(C)c(S(=O)(=O)N3CCOCC3)c2)cc1
    ? | ?

Full records from above.
Entry for `CCOC(=O)c1ccc(NC(=O)c2ccc(C)c(S(=O)(=O)N3CCOCC3)c2)cc1` = Vaccinia Venus: ?; VACV mCherry inh: ?
Entry for `Cn1c(=O)c2c(nc(OCc3cccnc3)n2Cc2c(F)cccc2Cl)n(C)c1=O` = Vaccinia Venus: -8.4%; VACV mCherry inh: i
Entry for `COc1cccc(C2=CC(=O)C(C(C)(C)C)N2C(C)(C)C)c1` (stereo not drawn) = Vaccinia Venus: -2.5%; VACV mCherry inh: i

(continued)
Below each SMILES – Vaccinia Venus | VACV mCherry inh
- CN(c1ccccc1)S(=O)(=O)c1cccc(C(=O)NCCCN2CCCC2=O)c1
    -17.6% | -3.0%
- CCOc1ccc(C=NN2CCCCCC2)cc1OCC
    7.0% | -14.0%
- COc1ccc(N2C(=O)CC(N3CCN(c4ccccc4F)CC3)C2=O)cc1 (stereo not drawn)
    -2.4% | -12.1%
- Cc1cccc(-c2nc(NCCN(C)C)c3ccccc3n2)c1
    -0.9% | -1.6%
- Cc1ccc(S(=O)(=O)N2CCCCC2)cc1NC(=O)C1CCN(C(=O)OC(C)(C)C)CC1
    -21.8% | -11.2%
- COc1ccc(CCN2CN(S(=O)(=O)c3ccc(OC)cc3)c3nc4ccccc4nc32)cc1
    -27.4% | ?
- C[C@H](CO)N1C[C@H](C)[C@H](CN(C)S(=O)(=O)c2ccc(Cl)cc2)OCc2ccccc2-c2c(n(C)c3ccccc23)C1=O
    ? | ?
- Cc1cc(OC(=O)c2cc([N+](=O)[O-])ccc2Cl)c([N+](=O)[O-])c(=O)[nH]1
    -6.7% | -19.6%
- CCCCn1cc(S(=O)(=O)c2ccc(C)c(C)c2)c(=O)c2cc(F)c(N3CCN(C)CC3)cc21
    -8.3% | -5.3%
- COc1cccc(C(c2sc3ncnn3c2O)N2CC(C)OC(C)C2)c1 (stereo not drawn)
    6.3% | ?

Next results follow.
Below each SMILES – Vaccinia Venus | VACV mCherry inh
- CC1(C(=O)OCC(=O)Nc2ccc(C(N)=O)cc2)CC1(Cl)Cl (stereo not drawn)
    -0.7% | -2.7%
- Cc1ccc(O)c(CCc2ccccc2)n1
    -10.6% | -8.3%
- COc1ccc2[nH]c(C(=O)N(C)c3ccc(F)cc3F)cc2c1
    -8.1% | -17.6%
- CC1CCCCN1CCCNC(=O)C1CCN(c2nc3ccccc3o2)CC1 (stereo not drawn)
    -5.3% | i
- S=c1[nH]nc(-c2ccc(Cl)cc2)n1-c1ccc(Cl)cc1
    -15.6% | -12.9%
- O=C(Nc1ccc(F)c(Cl)c1)N1CCCC1
    9.3% | -9.7%
- O=C(COc1ccc(Cl)cc1)NCCc1csc(-c2ccc(F)cc2)n1
    1.6% | -9.0%
- Cc1ccc(S(=O)(=O)NCCC(=O)NCC(=O)Nc2c(C)cccc2C)cc1C
    -5.9% | -21.1%
- O=C(CSc1nc2ccccc2c(=O)n1Cc1ccco1)NCc1ccco1
    -8.4% | i
- CC(=O)OC1C[C@]2(C)[C@@H](CC(O)C3[C@]4(C)CCC(O)C(C)[C@@H]4CC[C@]32C)/C1=C(/CCC=C(C)C)C(=O)O (stereo partly drawn)
    -14.4% | -18.9%

Additional compounds follow:
Below each SMILES – Vaccinia Venus | VACV mCherry inh
- O=C(Nc1nnc(S(=O)(=O)N2CCCc3ccccc32)s1)c1cccc(Cl)c1
    ? | i
- CCOC(=O)/C=C/C(=O)Nc1cc(S(=O)(=O)Nc2ccc(OC)cc2)ccc1N1CCOCC1
    -31.6% | ?
- O=C(NCc1ccco1)c1ccc(=O)[nH]n1
    -26.8% | .
- O=C(NCCCN1CCOCC1)C(=O)N/N=C/c1c(Cl)cccc1Cl
    8.0% | -4.4%
- CCN(CC)S(=O)(=O)c1ccc(C(=O)NC(=S)N(CCC#N)Cc2cccnc2)cc1
    -10.6% | -7.2%
- CC(C)(C)c1nc2sc3c(c2c(=O)o1)CCCC3
    -5.2% | -10.4%
- CCC(C)(C)NC(=O)C(c1ccc(C)cc1)N(Cc1ccco1)C(=O)CCC(=O)Nc1nccs1 (stereo not drawn)
    -13.1% | .
- Cc1ccc2c(Sc3ccc(Cl)cc3)c(C(=O)N3CCC(C)CC3)[nH]c2c1
    -8.6% | -7.8%
- CC(C)(C)C(=O)/C=C(\N)c1ccccn1
    ? | .
- COc1cccc(OCc2nnc(SCC(=O)NNC(=O)C3CCCCC3)n2C)c1
    -2.9% | i

Carrying on.
structure	Vaccinia Venus	VACV mCherry inh
COc1ccc(CNC(=O)C(=O)Nc2cc(Cl)ccc2OC)cc1	-3.5%	i
O=C(Nc1ncccc1O)c1cc2ccccc2o1	-22.5%	-22.0%
CC(C)(C)NS(=O)(=O)c1cc(C(=O)Nc2sccc2C#N)ccc1Cl	13.4%	-22.0%
Cc1cnc(C)c(N2CCC(C(=O)NCc3cccs3)CC2)n1	-15.1%	-22.4%
CCOC(=O)N1CCN(CC(=O)Nc2c(C(=O)OC)[nH]c3ccccc23)CC1	-18.3%	-22.2%
CCOc1ccc(/C(O)=C2/C(=O)C(=O)N(CCOCCO)C2c2ccccc2)cc1 (stereo not drawn)	7.6%	-1.6%
CCC(OC(=O)CN1C(=O)C(=O)c2ccccc21)C(=O)Nc1ccc(S(N)(=O)=O)cc1 (stereo not drawn)	-11.2%	-3.8%
Cc1ccc(NC(=O)C2CCN(S(=O)(=O)c3ccc4c(c3)OCCO4)CC2)nc1	-24.3%	-0.6%
CCOc1cc(/C=N/O)cc(Br)c1OCC(=O)NCc1ccccc1	-12.2%	-7.4%
CCCc1cc(=O)oc2c(C)c(OCC(=O)N3CCC(C(=O)O)(c4ccccc4)CC3)ccc12	-4.9%	6.4%
OCc1cccc[n+]1CCc1ccccc1	-14.5%	i
O=[N+]([O-])c1cccc2ccc(/C=C/c3ccc(F)cc3)nc12	-22.2%	?
COc1ccccc1Cn1c(-c2ccccc2OC)nc2ccccc21	-16.3%	-24.4%
CCCOc1ccc(-c2nc(SCC(=O)c3ccc(Cl)cc3)n[nH]2)cc1	-14.2%	-18.9%
CSC(=Nc1ccccc1)N=C(SCc1ccccc1)N(C)C	?	?
Cn1cccc1/C=N/NC(=O)C12CC3CC(CC(C3)C1)C2	-14.1%	i
CCCCn1c(=O)nc2n(-c3ccc(Cl)cc3)c3ccccc3cc-2c1=O	2.5%	i
COc1ccc(NC(=O)C(=O)NCC(c2ccc3c(c2)OCO3)N2CCN(C)CC2)cc1 (stereo not drawn)	-14.9%	-14.2%
CCOC(Cn1c(-c2ccc(OC)cc2)nc2ccccc21)OCC	-13.2%	-18.5%
Cc1ccc(-n2nc(C)c3c(C(=O)NCCc4ccc(S(N)(=O)=O)cc4)cc(C)nc32)cc1	-15.5%	-21.7%

(list continues)
structure	Vaccinia Venus	VACV mCherry inh
CC1CCCC(C)N1c1nnc(NC(=O)c2cc(-c3ccc(Br)cc3)on2)s1 (stereo not drawn)	-10.3%	-10.3%
CCCn1c(SCc2nc(-c3ccc(OC)cc3OC)no2)nnc1-c1ccc(Cl)cc1	-17.4%	-9.2%
C[C@@H]1CN([C@@H](C)CO)C(=O)CCCn2nncc2CO[C@H]1CN(C)Cc1ccc2cccnc2c1	-18.9%	?
CCC1CCCCN1CC(=O)Nc1cc(C)c2c(=O)oc3ccccc3c2n1 (stereo not drawn)	3.0%	3.6%
Cc1cc(C)c(C#N)c(SCc2ccc(F)cc2)n1	-10.7%	i
CC(O)(c1cccnc1)c1nc(-c2ccc(S(C)(=O)=O)cc2)cs1 (stereo not drawn)	3.8%	-5.2%
COc1ccccc1N1CCN(C(=O)c2ccc(Cl)c(S(=O)(=O)N3CCCC3)c2)CC1	-15.2%	-4.7%
Cc1cc(NC(=O)c2cc(C)on2)n(-c2ccccc2)n1	-5.5%	-13.2%
O=C(CN(Cc1ccc(Cl)cc1)C(=O)c1csnn1)NCc1ccccc1	13.8%	-19.1%
Nc1cc(C(=O)OCC(=O)N2CCCC2=O)ccc1Cl	-7.0%	-11.1%
Cc1cc(C)n(CC2CC(=O)N(c3ccc(Cl)cc3)C2=O)n1 (stereo not drawn)	-7.8%	-0.1%
COc1ccc(CN2C(=O)N(c3ccccc3)C(=O)C2c2ccccc2)cc1COc1ccc(NC(C)=O)cc1 (stereo not drawn)	-16.5%	-23.5%
O=[N+]([O-])c1ccc(N(c2ccccc2)c2ccccc2)cc1	-9.5%	-14.6%
Cc1ccc(-c2nnc(SCc3nc(N)nc(Nc4ccccc4C)n3)n2N)cc1	-26.2%	.
Cc1ccc(C(=O)N2CCN(c3cccc(Cl)c3)CC2)cc1-n1c(C)nc2cccnc21	-21.6%	-27.2%
COC(=O)c1ccccc1-c1c2ccc(=N)cc-2oc2cc(N)ccc12	.	166.6%[activator]
CCCCC[n+]1ccn(C2=C([O-])c3ccccc3C(=O)/C2=N\S(=O)(=O)c2ccccc2)c1	?	?
Cc1cc(C)cc(OCC(=O)Nc2ccc(N3CCN(C(=O)c4ccco4)CC3)cc2)c1	-23.0%	-14.3%
CC(N)CCCC(C)(C)O (stereo not drawn)	-6.2%	-13.7%
Cc1cc(C)n(CC(=O)NNC(=O)c2ccc(OC(F)(F)F)cc2)n1	0.0%	i

More structures follow:
structure	Vaccinia Venus	VACV mCherry inh
NS(=O)(=O)c1ccc(NC(=S)N2CCN(c3ccc(Cl)c(Cl)c3)CC2)cc1	?	?
COc1cccc(OCC(=O)O/N=C(\N)c2ccncc2)c1	-1.1%	?
COCCNC(=O)C(=O)NCC(c1cccnc1)N1CCN(c2ccccc2OC)CC1 (stereo not drawn)	-5.2%	-8.4%
CCC(=O)Nc1nc2ccc(NC(C)=O)cc2s1	-11.7%	-17.1%
Cc1ccc2c(c1)N(C(=O)CCC(=O)Nc1ccccc1Cl)CC(C)O2 (stereo not drawn)	-18.2%&2.7%	-5.5%&-10.3%
CCOC(=O)CN(C(=O)COc1nc(C)cc(C)c1C#N)c1cccc(Cl)c1	-9.3%	i
O=C(O)c1ccc(N=Nc2c(O)ccc3ncccc23)cc1	?	-26.2%
Cc1ccc(-c2nnc(SCC(N)=O)nc2-c2ccc(C)cc2)cc1	-7.6%	-13.6%
Cc1ccc2c(c1)N(C(=O)CCC(=O)N1CCOCC1)CC(C)O2 (stereo not drawn)	-4.6%	i
CCOc1ccccc1NC(=O)C1CCN(S(=O)(=O)c2c(C)noc2C)CC1	-5.7%	i
COC(=O)CCNc1n[nH]c(=O)[nH]c1=O	-12.6%	-13.7%
CC1CN(Cc2nc3c(c(=O)n(C)c(=O)n3C)n2CCCc2ccccc2)CC(C)O1 (stereo not drawn)	-6.9%	.
N#Cc1c(-c2ccco2)cc(C2CC2)nc1SCC(=O)c1ccccc1	-1.3%	-12.9%
CCN(CC)S(=O)(=O)c1ccc2[nH]cc(C(=O)NCCN3CCCCC3C)c(=O)c2c1 (stereo not drawn)	-4.2%	-7.5%
COc1cccc(NC(=O)C2CCN(S(=O)(=O)c3c(C)noc3C)CC2)c1	-5.2%	2.8%
CC12CN3CCN(CC(C3)/C1=N/NC(N)=O)C2	-11.9%	i
COCCNC(=O)C1(C)CCCN(Cc2ccc(OCc3ccccc3)cc2)C1 (stereo not drawn)	-5.8%	i
O=S(=O)(Nc1ccc(S(=O)(=O)N2CCOCC2)cc1)c1ccc(Br)cc1	-8.9%	-3.9%
Cc1ccc(C)c(S(=O)(=O)N2CCN(C(=O)c3ccncc3)CC2)c1	-3.1%	-10.3%
O=C(NCc1cccs1)c1cccc2c(-c3ccc(F)c(F)c3)coc12	-4.8%	-7.9%

Further records follow.
structure	Vaccinia Venus	VACV mCherry inh
Cn1nnnc1SCC(=O)NNC(=O)c1ccc(Cl)cc1	-5.4%	-1.6%
CCOC(=O)N1CCN(C(=O)C2CCN(c3ncnc4c3sc3cccc(F)c34)CC2)CC1	?	.
C[C@@H](O)[C@H]1O[C@]2(C)CCC[C@H]1O2	-0.5%	i
Cc1c(O)c(CN2CCCCC2)cc2c1oc(=O)c1ccccc12	-13.6%	-11.9%[1.46 µM]
CCCNC(=O)C1(C)CCN(C(=O)c2ccccc2OC)C1 (stereo not drawn)	-12.3%	i

Compound activity from PubChem.
